A1 inhib = blocks A1 activity. MEF A1-2A-BIM cells, caspase-Glo luminescence, 3 h; percent of clofoctol signal, DMSO as zero. caspase activation, % (no concentration beside the values). 0.51% of 21,000 active. AID 2241;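 active means most replicate scores above 10, or exactly half above 10 with mean activity above 10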;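 further: effector caspase 3 and 7 activity cleaving a DEVD luciferin substrate; 50 nL library stock added to about 30 µL; numbers are from one replicate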
BJeLR viability = lowers viability of BJeLR cells; BJeLR fibroblasts viability, CellTiterGlo ATP luminescence, 48 h; HRASV12, hTERT and SV40 LT/ST transformed; viability loss activity score, % (concentration not given with the values); 0.64% of 30,000 active; AID 2275; in the data active means viability loss activity score above about 50%; about a fifth of its hits are not listed in these tables;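 further: higher score means fewer live cells and less ATP luminescence; stock transfer was 50 or 100 nL into about 30 µL; 0% = vehicle wells and 100% = a reference killing control; one replicate is shown; the record names a cut of 85%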
Numbers without * were called inactive; · = not tested or not shown. The list is partial, so the mix of outcomes need not match the whole.

No.	compound	A1 inhib	BJeLR viability
1	C[C@H]1CN([C@@H](C)CO)C(=O)c2cccc(NC(=O)NC3CCCCC3)c2O[C@@H]1CN(C)CC1CC1	·	-12.0
2	COc1ccc(OC)c(C(=O)c2coc3ccc(O)cc23)c1	-0.3	-6.4
3	C[C@H](CO)N1C[C@H](C)[C@@H](CN(C)S(=O)(=O)c2cccs2)Oc2ccc(NC(=O)CCCN(C)C)cc2C1=O	0.5	1.0
4	COC(=O)c1c(NC(=O)/C=C/c2ccccc2)sc2c1CCCC2	0.5	-3.7
5	C[C@H]1CN([C@@H](C)CO)C(=O)c2cc(NC(=O)CCCN(C)C)ccc2O[C@H]1CN(C)C(=O)NC1CCCCC1	-0.6	1.9
6	COc1ccc(S(=O)(=O)N(C)C[C@@H]2Oc3ccc(NC(=O)c4ccncc4)cc3C(=O)N([C@@H](C)CO)C[C@@H]2C)cc1	0.3	-7.5
7	CNc1ccccc1C(=O)OCC(=O)c1ccccc1	-2.7	0.9
8	Cc1noc(C)c1S(=O)(=O)N(C)C[C@H]1Oc2ccc(NS(=O)(=O)c3ccccc3)cc2C(=O)N([C@@H](C)CO)C[C@H]1C	·	0.8
9	COc1ccc(CN(C)C[C@H]2Oc3c(NC(=O)Nc4ccc(OC)cc4)cccc3C(=O)N([C@H](C)CO)C[C@@H]2C)cc1	·	1.2
10	C[C@H](CO)N1C[C@H](C)[C@H](CN(C)Cc2ccc(-c3ccccc3)cc2)Oc2ccc(NS(=O)(=O)c3cccs3)cc2C1=O	-0.4	-0.7

(list continues)
No.	compound	A1 inhib	BJeLR viability
11	NC(=S)c1cnccc1C(F)(F)F	-0.6	-1.2
12	COc1ccc(C(=O)NCCn2cc(SCC(=O)N3CCCCC3)c3ccccc32)cc1	-0.6	-1.7
13	N#Cc1ccc(Sc2ccc(Cl)cc2)nc1	-0.1	-3.4
14	COc1ccc(S(=O)(=O)Nc2ccc3c(c2)C(=O)N([C@@H](C)CO)C[C@@H](C)[C@@H](CN(C)C(=O)Nc2c(C)noc2C)O3)cc1	-0.1	-1.9
15	CC(C)NC(=O)Nc1cccc2c1O[C@H](CN(C)S(=O)(=O)c1ccc(Cl)cc1)[C@@H](C)CN([C@@H](C)CO)C2=O	·	-2.4
16	CCOC(=O)c1c(CC(C)C)csc1/N=C/C1C(=O)CCCC1=O	·	3.7
17	Cc1noc(C)c1NC(=O)Nc1cccc2c1O[C@@H](CN(C)Cc1ccc(C(F)(F)F)cc1)[C@@H](C)CN([C@H](C)CO)C2=O	·	3.1
18	CC(NC(=O)c1ccccc1OCC(=O)NC12CC3CC(CC(C3)C1)C2)c1ccccc1 (stereo not drawn)	·	-4.6
19	C[C@@H]1CN([C@H](C)CO)C(=O)c2cc(NC(=O)C3CC3)ccc2O[C@H]1CN(C)Cc1ccc(Oc2ccccc2)cc1	-0.2	3.4
20	O=C(NCCCN1CCOCC1)C1C2C=CC3(CN(Cc4cccs4)C(=O)C13)O2 (stereo not drawn)	·	-0.1

(listing goes on)
No.	compound	A1 inhib	BJeLR viability
21	NNC(=O)c1cc2c(s1)-c1ccccc1CC2	-4.9	-1.0
22	Cc1cc(C#N)c2c(C)ccc(C(C)C)cc1-2	-0.6	-0.1
23	Clc1ccc(-c2csc(-c3ccc4c(c3)CCO4)n2)s1	·	4.5
24	COc1ccc(N2C(=O)CCC(C(=O)N3CCCCC3)C2c2ccc(OC)c(OC)c2)cc1 (stereo not drawn)	·	8.3
25	NCCCC[C@H](N)C(=O)N[C@@H](Cc1ccccc1)C(=O)N[C@@H](Cc1ccc(O)cc1)C(=O)O	-0.1	3.9
26	NC(N)=NCc1cccc(I)c1	0.0	5.5
27	Cc1ccc(S(=O)(=O)Nc2ccc3c(c2)C(=O)N([C@@H](C)CO)C[C@@H](C)[C@@H](CN(C)Cc2ccc(C(=O)O)cc2)O3)cc1	-0.3	1.8
28	COc1ccc(NC(=O)N(C)C[C@H]2Oc3c(NS(=O)(=O)c4cccs4)cccc3C(=O)N([C@@H](C)CO)C[C@@H]2C)cc1	·	9.0
29	COC(=O)c1cc2sc(Cl)cc2n1CC(=O)N1CCCc2ccccc21	0.8	-1.0
30	O=C(O)COCC(=O)N1CCN(c2cc(C(F)(F)F)nc3ccccc23)CC1	·	1.4

The list goes on:
No.	compound	A1 inhib	BJeLR viability
31	CCOC(=O)c1sc2nc(C)nc(N3CCC(C)CC3)c2c1C	-0.7	5.1
32	C[C@H](CO)N1C[C@H](C)[C@H](CN(C)S(=O)(=O)c2ccc(Cl)cc2)Oc2ccc(NC(=O)C3CC3)cc2C1=O	0.1	1.9
33	Cc1ccc(S(=O)(=O)/N=C(\c2ccccc2)N(C)S(=O)(=O)c2ccc(C)cc2)cc1	0.2	-1.5
34	O=C(NCC1CCCO1)C1CC(c2ccc(F)cc2)=NO1 (stereo not drawn)	·	-5.1
35	CCc1cccc(C)c1NC(=O)C1COc2ccccc2O1 (stereo not drawn)	-0.5	-0.8
36	C=C[C@@]1(C)C[C@@]2(OC[C@@]3(C)O[C@@H]23)Oc2c1c(=O)oc1cccc(C)c21	-0.3	2.5
37	COc1ccc2c(c1)C(=O)/C(=C/c1ccc(N(C)C)cc1)CC2	-6.0	13.3
38	C[C@@H]1CN([C@H](C)CO)C(=O)c2cccc(NC(=O)c3nc4ccccc4s3)c2O[C@@H]1CN(C)CC1CC1	·	-3.2
39	COc1ccc(CC(=O)N(Cc2nc(-c3ccc(Cl)cc3)no2)C(C)C)cc1OC	·	7.6
40	N#Cc1ccc(C#N)c(-c2ccccc2)c1	0.2	-7.9

Going on with the list:
No.	compound	A1 inhib	BJeLR viability
41	CC1(C)C=Cc2c(cc3occ(-c4ccc5c(c4)OCO5)c(=O)c3c2O)O1	-4.3	2.1
42	Cc1cc(C)c(S(=O)(=O)N(CC#N)CC#N)c(C)c1	1.0	4.3
43	CNC[C@H]1Oc2ccc(NC(=O)Nc3ccccc3)cc2C(=O)N([C@H](C)CO)C[C@H]1C	-0.6	5.8
44	C[C@@H]1CN([C@H](C)CO)C(=O)c2cc(NC(=O)Cc3cn(C)c4ccccc34)ccc2O[C@H]1CN(C)Cc1ccncc1	0.3	-1.0
45	CC(=O)Nc1ccc(NC(NC(=O)c2cccs2)C(=O)c2ccccc2)cc1 (stereo not drawn)	0.6	-8.1
46	CCOc1ccc(-c2nc(C#N)c(NCCCN(CC)CC)o2)cc1	·	7.1
47	Cn1cc(S(=O)(=O)Nc2ccccc2N2CCOCC2)c(C(F)(F)F)n1	0.1	-0.5
48	C[C@@H]1CN([C@H](C)CO)C(=O)c2cc(NC(=O)c3ccncc3)ccc2O[C@@H]1CN(C)C(=O)Nc1ccc(F)cc1	0.8	-7.0
49	Cc1ccc(SCc2cc(=O)[nH]c(/N=C(\N)Nc3ccccc3)n2)cc1	4.9	6.5
50	Cc1ccc(Cn2c(C)c3cn[nH]c(=O)c3c2C)cc1	0.3	6.2

Excerpt: entries 13–15
No.	compound	A1 inhib	BJeLR viability
13	N#Cc1ccc(Sc2ccc(Cl)cc2)nc1	-0.1	-3.4
14	COc1ccc(S(=O)(=O)Nc2ccc3c(c2)C(=O)N([C@@H](C)CO)C[C@@H](C)[C@@H](CN(C)C(=O)Nc2c(C)noc2C)O3)cc1	-0.1	-1.9
15	CC(C)NC(=O)Nc1cccc2c1O[C@H](CN(C)S(=O)(=O)c1ccc(Cl)cc1)[C@@H](C)CN([C@@H](C)CO)C2=O	·	-2.4

More results:
No.	compound	A1 inhib	BJeLR viability
51	COc1cccc(C(=O)NCC2(c3ccccc3)CCCC2)c1	-0.6	2.4
52	CC(C)C(=O)Nc1ccc(-c2nc3cccnc3s2)cc1	-5.4	3.5
53	CC1CCCCN1S(=O)(=O)c1ccc(N)cc1 (stereo not drawn)	-0.5	-1.9
54	C[C@H]1CN([C@@H](C)CO)C(=O)c2cc(NC(=O)CCCN(C)C)ccc2O[C@@H]1CN(C)Cc1ccc2c(c1)OCO2	0.8	2.6
55	C[C@@H]1CN([C@@H](C)CO)C(=O)c2cc(NC(=O)C3CCCCC3)ccc2O[C@H]1CN(C)C(=O)Nc1cccc2ccccc12	0.9	0.0
56	C[C@@H]1CN([C@@H](C)CO)C(=O)c2cc(NC(=O)Nc3ccccc3)ccc2O[C@@H]1CN(C)S(=O)(=O)c1ccccc1	0.1	1.5
57	C=C(C(=O)O[C@H]1C[C@]2(C)C(C(C=O)CC[C@H]2O)[C@H]2OC(=O)C(=C)[C@H]12)C(O)CO (stereo partly drawn)	0.2	-2.3
58	COC(=O)c1ccc(/C=C2/Oc3ccccc3N(Cc3ccccc3F)C2=O)cc1	-1.0	2.5
59	C[C@@H]1CN([C@@H](C)CO)C(=O)c2cc(NS(=O)(=O)c3ccccc3)ccc2O[C@H]1CN(C)S(=O)(=O)c1ccccc1	-0.7	-0.1
60	Cc1c(C#N)c(Sc2cccc(C(F)(F)F)c2)nc2ccccc12	-0.3	-1.5

Compound profiles (already shown). Order of screens: A1 inhib | BJeLR viability
CCOC(=O)c1c(CC(C)C)csc1/N=C/C1C(=O)CCCC1=O is entered as · | 3.7
COc1ccc(S(=O)(=O)N(C)C[C@@H]2Oc3ccc(NC(=O)c4ccncc4)cc3C(=O)N([C@@H](C)CO)C[C@@H]2C)cc1 is entered as 0.3 | -7.5
C[C@@H]1CN([C@@H](C)CO)C(=O)c2cc(NS(=O)(=O)c3ccccc3)ccc2O[C@H]1CN(C)S(=O)(=O)c1ccccc1 is entered as -0.7 | -0.1
Cc1noc(C)c1NC(=O)Nc1cccc2c1O[C@@H](CN(C)Cc1ccc(C(F)(F)F)cc1)[C@@H](C)CN([C@H](C)CO)C2=O is entered as · | 3.1

Additional entries follow.
No.	compound	A1 inhib	BJeLR viability
61	C/C(=C/CCC(CO)C1CCC2(C)C3CCC4C(C)(C)C(OC5OC(CO)C(O)C(O)C5O)CCC45CC35CCC12C)COC1OC(COC2OC(CO)C(O)C(O)C2O)C(O)C(O)C1O (stereo not drawn)	-0.1	-3.5
62	CC(C)NC(=O)N(C)C[C@H]1Oc2c(NC(=O)Nc3ccc4c(c3)OCO4)cccc2C(=O)N([C@H](C)CO)C[C@@H]1C	·	5.1
63	Cc1ccc(S(=O)(=O)Nc2cccc3c2O[C@@H](CN(C)Cc2ccc(Oc4ccccc4)cc2)[C@@H](C)CN([C@@H](C)CO)C3=O)cc1	·	-1.5
64	COc1ccc(S(=O)(=O)Nc2cccc3c2O[C@@H](CN(C)C(=O)Nc2cccc4ccccc24)[C@H](C)CN([C@@H](C)CO)C3=O)cc1	·	-4.7
65	CCOC(=O)c1nc(C)sc1-c1ccnn1S(=O)(=O)c1ccc(Cl)cc1Cl	-0.5	2.5
66	CCOC(=O)c1sc(=NC(=O)c2ccc(OCC)cc2)n(C)c1C	-0.2	-3.4
67	O=c1n(CCSc2nnnn2-c2ccccc2)nnn1-c1ccccc1	·	-1.8
68	O=c1oc(-c2ccccc2Br)nc2sc3c(c12)CCC3	-1.3	-0.7
69	C[C@@H]1CN([C@@H](C)CO)C(=O)c2cc(NC(=O)Nc3ccc4c(c3)OCO4)ccc2O[C@@H]1CN(C)Cc1ccc(-c2ccccc2)cc1	-0.3	-2.2
70	COc1ccc(CN(C)C[C@H]2Oc3c(NC(=O)Nc4ccc(OC)cc4)cccc3C(=O)N([C@H](C)CO)C[C@H]2C)cc1	·	4.7

Further entries follow.
No.	compound	A1 inhib	BJeLR viability
71	CC(C)NC(=O)N(C)C[C@H]1Oc2c(NS(=O)(=O)c3ccc(F)cc3)cccc2C(=O)N([C@@H](C)CO)C[C@@H]1C	·	2.9
72	COc1ccc(NC(=O)C(C)n2sc3ccccc3c2=O)cc1 (stereo not drawn)	0.6	6.1
73	CCC(C)C(O)C(C)(O)/C=C/C1=CC2=C(Cl)C(=O)C(C)(O)C(O)C2CO1 (stereo not drawn)	0.5	-3.8
74	C[C@@H]1CN([C@@H](C)CO)C(=O)c2cc(NC(=O)c3ccncc3)ccc2O[C@H]1CN(C)S(=O)(=O)c1cccs1	0.4	-3.6
75	CCOc1ccccc1C(=O)NCc1cn2ccccc2n1	0.0	1.0
76	C[C@@H]1CN([C@@H](C)CO)C(=O)c2cccc(NC(=O)Nc3ccc(F)cc3)c2O[C@H]1CN(C)CC1CCCCC1	·	-1.4
77	Cc1ccc(S(=O)(=O)Nc2ccc3c(c2)C(=O)N([C@@H](C)CO)C[C@H](C)[C@H](CN(C)CC2CCCCC2)O3)cc1	0.8	0.4
78	C=CCN1C(=O)C2(c3ccccc31)c1c(oc3ccccc3c1=O)C(=O)N2CCCO (stereo not drawn)	-0.7	5.5
79	COc1ccc(NC=O)c(CS(=O)(=O)c2ccc(C)cc2)n1	-0.3	6.2
80	CNC[C@@H]1Oc2ccc(NS(=O)(=O)c3cccs3)cc2C(=O)N([C@@H](C)CO)C[C@H]1C	0.5	-3.1

Continued:
No.	compound	A1 inhib	BJeLR viability
81	C[C@H](CO)N1C[C@H](C)[C@@H](CN(C)S(=O)(=O)c2ccc(Cl)cc2)Oc2ccc(NC(=O)Cc3cn(C)c4ccccc34)cc2C1=O	0.0	-9.5
82	COc1ccc(-c2nn(C)c3sc(C(=O)NCC4(c5ccccc5)CCCC4)cc23)cc1OC	·	-1.7
83	CCOC(=O)c1cnc2cc(C(F)(F)F)ccc2c1N1CC(C)CC(C)C1 (stereo not drawn)	-0.5	0.7
84	O=C(CSc1n[nH]c(=O)n1Cc1ccco1)Nc1ccccc1	0.1	-2.4
85	CC(=O)O[C@H]1CC[C@@]2(C)C(CC[C@]3(C)C2C(=O)C=C2C4[C@@H](C)[C@H](C)CC[C@]4(C(=O)O)CC[C@]23C)C1(C)C (stereo partly drawn)	-0.6	-6.7
86	CNC[C@H]1Oc2ccc(NC(=O)C3CC3)cc2C(=O)N([C@@H](C)CO)C[C@@H]1C	0.1	5.2
87	Cc1noc(C)c1NC(=O)N(C)C[C@@H]1Oc2c(NC(=O)c3ccc(-c4nccs4)cc3)cccc2C(=O)N([C@@H](C)CO)C[C@H]1C	·	3.0

Screens: PubChem BioAssay, Broad Institute
